Bioassay records: PubChem BioAssay, ICCB-Longwood Screening Facility, Harvard Medical School
PV pol inh = inhibitors of poliovirus RNA polymerase binding and polymerization; poliovirus polymerase elongation, fluorescence polarization; hits give low values; % elongation, % (compound at 16.7 µg/mL); P03300; AID 588519; 0.66% of 150,000 active; in the data active = % elongation below about 90%; note: some results filed as inactive read as strong as hits
Target sequence (P03300 1749-2209 limits assumed): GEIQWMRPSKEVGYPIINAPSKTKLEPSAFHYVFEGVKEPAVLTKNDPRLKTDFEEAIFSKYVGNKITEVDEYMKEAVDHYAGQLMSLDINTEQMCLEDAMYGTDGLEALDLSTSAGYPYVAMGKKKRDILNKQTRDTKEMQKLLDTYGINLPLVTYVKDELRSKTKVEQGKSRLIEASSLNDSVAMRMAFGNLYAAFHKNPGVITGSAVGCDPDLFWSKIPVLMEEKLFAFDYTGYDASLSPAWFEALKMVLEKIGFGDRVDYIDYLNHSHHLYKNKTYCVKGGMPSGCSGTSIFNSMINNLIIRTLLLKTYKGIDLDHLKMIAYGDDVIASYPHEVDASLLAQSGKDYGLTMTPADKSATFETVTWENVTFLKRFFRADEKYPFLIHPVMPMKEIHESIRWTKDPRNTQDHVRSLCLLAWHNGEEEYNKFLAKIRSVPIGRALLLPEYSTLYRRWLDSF
Mtb MbtI inh = MbtI salicylate synthase inhibition; inhibition, %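 (about 17 µg/mL by stock and volumes)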; purified MbtI enzyme, fluorescence intensity read-out; 0.89% of 100,000 active; P9WFX0;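 active = above 50% in both replicates, above 80% if mildly self-fluorescent; inactive = the rest, strongly fluorescent compounds included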;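 note: 0% = mean of negative and 100% = mean of positive controls; one replicate is shown; some compounds called inactive have numbers as strong as hits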
Target sequence (P9WFX0 whole entry, looked up): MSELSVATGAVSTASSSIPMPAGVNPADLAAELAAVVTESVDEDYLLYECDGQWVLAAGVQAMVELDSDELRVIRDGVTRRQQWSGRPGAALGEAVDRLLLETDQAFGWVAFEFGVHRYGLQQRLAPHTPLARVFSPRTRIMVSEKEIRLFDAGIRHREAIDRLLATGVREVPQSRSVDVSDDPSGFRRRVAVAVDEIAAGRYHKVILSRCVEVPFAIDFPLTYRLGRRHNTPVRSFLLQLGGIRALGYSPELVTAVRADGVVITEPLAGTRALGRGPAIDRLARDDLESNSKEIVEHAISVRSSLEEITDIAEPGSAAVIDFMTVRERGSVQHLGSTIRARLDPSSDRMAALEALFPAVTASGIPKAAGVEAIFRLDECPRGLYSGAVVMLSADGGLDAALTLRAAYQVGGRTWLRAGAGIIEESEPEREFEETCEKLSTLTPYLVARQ
Mtb MenB inh = Mtb MenB enzyme inhibition; 0.43% of 100,000 active; MenB enzyme assay, absorbance read-out; some hits fall short of the stated cut; AID 540299; inhibition, %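 (about 12 µg/mL by stock and volumes)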;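 active = mean of two replicates above 30%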;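 note: 0% = no compound and 100% = wells with inactive enzyme; the first replicate is given; strong numbers were not always called active; inactives centre near -10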
PV pol inh intensity = also measured in PV pol inh; calls as there; % elongation; measured here: total intensity read-out; formula for this scale not given here;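 total fluorescence in place of polarization; lower means less elongation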
An asterisk follows results filed as active; . = no result given; & = joins results of further samples.

1: NC(=O)CSc1nc(N)c(-c2ccccc2)c(=O)[nH]1
2: CNc1ccc(S(=O)(=O)c2ccc(NC)cc2)cc1
3: CCC(=O)OCC(=O)Nc1ccc2c(c1)OCO2
4: COc1ccc(NC(=O)CC(=O)Nc2ccc(OC)cc2)cc1
5: CN1/C(=C\C(=O)Cn2nnc3ccccc3c2=O)C(C)(C)c2ccccc21
6: O=C1CC(c2ccccc2)CC(O)=C1C=Nc1ccccc1 (configuration not stated)

compound no.	1	2	3	4	5	6
PV pol inh	101	102	110	106	106	100
PV pol inh intensity	103	103	115	104	108	104
Mtb MbtI inh	-9	-27	-12	.	-5	42
Mtb MenB inh	11	11	-16	-19	-22	8

Given field by field: 4 of the compounds above.
3: CCC(=O)OCC(=O)Nc1ccc2c(c1)OCO2
  PV pol inh = 110
  PV pol inh intensity = 115
  Mtb MbtI inh = -12
  Mtb MenB inh = -16

4: COc1ccc(NC(=O)CC(=O)Nc2ccc(OC)cc2)cc1
  PV pol inh = 106
  PV pol inh intensity = 104
  Mtb MbtI inh = .
  Mtb MenB inh = -19

5: CN1/C(=C\C(=O)Cn2nnc3ccccc3c2=O)C(C)(C)c2ccccc21
  PV pol inh = 106
  PV pol inh intensity = 108
  Mtb MbtI inh = -5
  Mtb MenB inh = -22

6: O=C1CC(c2ccccc2)CC(O)=C1C=Nc1ccccc1 (configuration not stated)
  PV pol inh = 100
  PV pol inh intensity = 104
  Mtb MbtI inh = 42
  Mtb MenB inh = 8

Next structures follow.
7: CCOc1ccccc1-n1c(N)c(C#N)c(N)c(C#N)c1=S
8: CCOC(=O)C1=C(CSc2nnc(-c3ccccc3OC)n2C2CCCCC2)NC(=O)NC1C (configuration not stated)
9: NC(=O)c1ccccc1NC(=O)c1cccc(COc2ccc3c(c2)CCC3)c1
10: FC(F)Sc1nnc2sc3ccccc3n12
11: c1ccc(COC(CN2CCCC2)CN2CCCC2)cc1
12: CC(C)CC(N(C)C)C1(c2ccc(Cl)cc2)CCC1 (configuration not stated)

compound no.	7	8	9	10	11	12
PV pol inh	106	102	99	102	104	98
PV pol inh intensity	104	106	102	100	107	100
Mtb MbtI inh	10	16	.	-5	.	-3
Mtb MenB inh	-8	-22	-18	-28	-11	-5

13: Cc1c(CC(=O)Nc2ccc(Cl)cc2)sc2ccc(Cl)cc12
14: O=C(NC(Nc1cccc(C(F)(F)F)c1)C(=O)c1ccccc1)c1cccs1 (configuration not stated)
15: Cc1c(C(=O)N(C)C)sc2[nH]c(=S)n(CCc3ccc(Cl)cc3)c(=O)c12
16: O=C(COC(=O)c1ccccn1)NCc1ccccc1
17: Cc1ccc(C(=O)Nc2ccnn2C(C)C)cc1
18: C=C(C)CC(N)(CC(=C)C)c1ccncc1

compound no.	13	14	15	16	17	18
PV pol inh	103	103	101	102	103	107
PV pol inh intensity	110	108	104	103	95	114
Mtb MbtI inh	-7	-8	-2	-5	-8	.
Mtb MenB inh	-8	3	-36	.	-27	-1

19: Cc1cccc(NC(=O)CCCN2C(=O)C(c3ccccc3)Oc3cccnc32)c1C (configuration not stated)
20: CN1CCN(Cc2ccccc2)CC1
21: CCC1CSC(Nc2ccc(C)c(Cl)c2)=N1 (configuration not stated)
22: CCOC(=O)CN(C)c1nc(-c2ccccc2)cs1
23: C=CCN1C(=O)/C(=C\c2cccs2)SC1=S
24: CCCCC1C(=O)NN(C2CCSC(C)(C)C2)C1=O (configuration not stated)

compound no.	19	20	21	22	23	24
PV pol inh	101	104	100	106	102	101
PV pol inh intensity	103	102	105	112	113	105
Mtb MbtI inh	-23	-11	-2	.	2	0
Mtb MenB inh	-1	-33	6	-4	-3	9

25: CC(NC(=O)Cc1ccccc1)c1ccccc1 (configuration not stated)
26: O=C(CCCn1c(=O)[nH]c2cc(Cl)ccc2c1=O)NC1CCCCCCC1
27: O=C(CSc1ncc(C(F)(F)F)cc1Cl)N1CCC(c2nc3ccccc3o2)CC1
28: NCCN1C(=O)c2[nH]nc(-c3ccccc3)c2C1c1ccccc1 (configuration not stated)
29: O=c1oc2ccccc2c2c1ncn2CCN1CCCC1
30: COc1ccc(-c2nnc(SCC(=O)c3cc(C)n(CC(F)(F)F)c3C)o2)cc1

compound no.	25	26	27	28	29	30
PV pol inh	102	104	100	99	99	100
PV pol inh intensity	101	97	97	101	96	109
Mtb MbtI inh	-17	5	4	.	-4	4
Mtb MenB inh	-6	-12	-53	-20	-10	3

31: CCc1ccc(-c2nn(-c3ccccc3)cc2/C=C(/C#N)C(N)=O)cc1
32: COC(=O)c1ccc(COC(=O)/C=C/c2ccc3c(c2)OCO3)o1
33: Cc1cc(C(=O)OCC(N)=O)c(C)o1
34: S=C(NC1CC1)N1CCc2ccccc2C1
35: Cc1noc(C(F)(F)F)c1-c1nnc(-c2cccc(C(F)(F)F)c2)o1
36: COC(=O)c1ccc2c(c1)C(=O)/C(=C/c1cn(-c3ccccc3)nc1-c1ccccc1)O2

compound no.	31	32	33	34	35	36
PV pol inh	99	107	103	100	107	101
PV pol inh intensity	101	107	107	99	114	99
Mtb MbtI inh	-69	12	-6	-1	-9	-3
Mtb MenB inh	-31	-10	.	4	-4	6

37: O=C1OC(C(=O)O)Cc2ccccc21 (configuration not stated)
38: CN(CC(=O)Nc1ccc(N2CCOCC2)cc1)C(=O)c1ccc(OC(F)F)cc1
39: CCc1nc2n(n1)C(O)c1cc(N)ccc1S2 (configuration not stated)
40: CCOC(=O)CSC1=C(C#N)C(c2ccccc2Cl)C(C(=O)OC)C(=O)N1 (configuration not stated)
41: Cc1ccc(/C=N/NC(=O)c2ccc(CN3CCOCC3)cc2)cc1
42: O=C(NCc1ccco1)c1oc(=O)c2ccccc2c1-c1ccccc1

compound no.	37	38	39	40	41	42
PV pol inh	101	.	103	100	102	100
PV pol inh intensity	101	.	101	101	102	101
Mtb MbtI inh	-10	-5	3	-1	1	-1
Mtb MenB inh	5	-4	30	1	-19	-13

43: COC(=O)c1cc2c(nc1SCC(=O)CC#N)CCC2
44: Cc1nn(CCC#N)c2[nH]c(=O)cc(C(F)(F)F)c12
45: COc1ccccc1CN1CCC(CNS(=O)(=O)c2ccc3c(c2)CCCC(=O)N3)CC1
46: CCCCn1c(SCC(=O)N2CCCCC2)nc2ccccc2c1=O
47: N#Cc1nncn1CN1CCC(Cc2ccccc2)CC1
48: Cc1nn(C)c(C)c1NC(=O)CCCC(=O)c1ccccc1

compound no.	43	44	45	46	47	48
PV pol inh	103	104	102	101	103	104
PV pol inh intensity	103	95	103	101	100	105
Mtb MbtI inh	-77	-8	-17	-12	-10	-13
Mtb MenB inh	-200	.	-36	-4	5	-21

49: Cc1cc(N2CCCC2=O)cc(C)c1S(=O)(=O)NCCOc1ccccc1
50: c1ccc(-c2nc(N3CCCCC3)nc3ccccc23)cc1
51: COc1ccc(Cl)cc1NS(C)(=O)=O
52: c1ccc(CSc2nc3ccccc3n2Cc2ccccn2)cc1
53: O=C(NC1CCCC1)c1cc(F)c(F)cc1Cl
54: O=C(Nc1cccc(Cl)c1N1CCOCC1)c1ccco1

compound no.	49	50	51	52	53	54
PV pol inh	102	101	105	101	102	103
PV pol inh intensity	100	103	109	106	104	101
Mtb MbtI inh	2	-2	.	-7	-3	-1
Mtb MenB inh	7	-35	-21	-17	.	18

55: COc1ccc(C(=O)NCC(C)C)c(OC)c1
56: NC(=O)CCCCC1CCSS1 (configuration not stated)
57: CCc1nnc(NC(=O)CN2CCN(c3ccccc3)CC2)s1
58: O=C(CCCn1c(=O)c2cccn2c2ccccc21)NCCN1CCCCCC1
59: Cc1ccc(NC(=O)Cn2c(=O)c(C#N)c3n(c2=O)CCC3)cc1
60: CC1CN(S(=O)(=O)c2cccs2)C(C)CN1S(=O)(=O)c1cccs1 (configuration not stated)

compound no.	55	56	57	58	59	60
PV pol inh	101	107	100	103	104	101
PV pol inh intensity	103	110	100	105	95	102
Mtb MbtI inh	16	-7	1	-10	4	-5
Mtb MenB inh	24	7	-35	7	-15	-7

61: CC1C(=O)C(C)C(c2ccc(Br)cc2)NC1c1ccc(Br)cc1 (configuration not stated)
62: CCC(=O)N1c2ccccc2-c2nnc(SC)nc2OC1c1ccsc1 (configuration not stated)
63: CCS(=O)(=O)c1ccc2oc(CN3C(=O)S/C(=C\c4ccccc4Cl)C3=O)nc2c1
64: CCOc1ncccc1C(=O)OCc1cn2cc(Cl)ccc2n1
65: Cc1ccc(-n2c(C)cc(C=Nc3ccc(-c4nnc5n4CCCCC5)cc3)c2C)cc1
66: O=C(Oc1ccccc1)c1cccc(COC(=O)c2cnccn2)c1

compound no.	61	62	63	64	65	66
PV pol inh	101	102	104	103	107	102
PV pol inh intensity	105	104	100	104	113	103
Mtb MbtI inh	14	-18	4	-2	-5	-14
Mtb MenB inh	-12	-77	-37	-3	-22	-12

67: CCCCSCc1ccc(C(=O)O)o1
68: O=C(CN1C(=O)S/C(=C\c2ccccc2)C1=O)N1CCN(c2ccccc2)CC1
69: FC(F)(F)c1cccc(OCc2nnc3n2CCC3)c1
70: CCOC(=O)/C(C#N)=C/N1CCCC1c1cccs1 (configuration not stated)
71: CC1CN(C(=O)c2ccc(Oc3ccccc3)cc2)CC(C)O1 (configuration not stated)
72: C=C1CC[C@@H](O)C/C1=C/C=C1\CCC[C@]2(C)[C@@H]([C@H](C)CCCC(C)C)CC[C@@H]12

compound no.	67	68	69	70	71	72
PV pol inh	91	112	105	103	99	101
PV pol inh intensity	108	118	114	100	106	100
Mtb MbtI inh	1	6	-11	3	10	-1
Mtb MenB inh	13	-17	-1	4	-18	5

73: O=C1C2C(c3ccccc3)C=CC(c3ccccc3)C2C(=O)N1C1CCCCC1 (configuration not stated)
74: O=C(N/N=C/c1ccccc1)NC1CCCCC1
75: CCn1c(=O)[nH]c(=O)c2c(C(F)(F)F)cc(C(F)(F)F)nc21
76: Cc1ccn2cc(CNS(=O)(=O)N(C)C)nc2c1
77: CCOc1ccc(CN(C)C(=O)CNC(=O)C2CCCCC2)cc1
78: CCOc1ccc2c(c1)ncn2Cc1ccccc1

compound no.	73	74	75	76	77	78
PV pol inh	103	101	103	104	106	101
PV pol inh intensity	107	102	99	115	105	96
Mtb MbtI inh	-2	-4	110	100	-4	2
Mtb MenB inh	2	-19	-1	4	2	.

Given as tab-separated lines: part of the list above
no.	SMILES	PV pol inh	PV pol inh intensity	Mtb MbtI inh	Mtb MenB inh
73	O=C1C2C(c3ccccc3)C=CC(c3ccccc3)C2C(=O)N1C1CCCCC1 (configuration not stated)	103	107	-2	2
74	O=C(N/N=C/c1ccccc1)NC1CCCCC1	101	102	-4	-19

(further entries)
79: CCOC(=O)C1CCN(C(=O)CCC(=O)NNc2nc3ccccc3c3nc(-c4ccccc4)nn23)CC1
80: Cc1cc(C)nc(NS(=O)(=O)c2ccc(N)cc2)n1
81: CCc1ccc(N2CC(C(=O)NCCCn3ccnc3)CC2=O)cc1 (configuration not stated)
82: CCN(CC)CCSc1nc2ccccc2c(=S)n1-c1ccccc1
83: COc1cc2c(cc1OC)C(COc1ccc3c(C)cc(=O)oc3c1)N(C(=O)c1ccco1)CC2 (configuration not stated)
84: CS(=O)(=O)N/N=C/C=C/c1ccccc1

compound no.	79	80	81	82	83	84
PV pol inh	98	102&99	101	101	102	98
PV pol inh intensity	99	101&104	109	94	102	101
Mtb MbtI inh	-1	-10&-10	-16	9	107	37
Mtb MenB inh	10	6&14	-22	-31	0	-16

85: O=S1(=O)NC(=NC2CCCCCC2)c2ccccc21
86: CCCN(CCC)c1nc(N2CCCC2)nc(N2CCCC2)n1
87: Cc1nc(N)[nH]c(=O)c1CC(=O)O
88: COc1cc(C(=O)COC(=O)c2ccccc2)cc(OC)c1OC
89: O=C(/C=C/c1cnc2ccccc2n1)OCC(=O)N1CCCCCC1
90: NC(=O)c1oc2ccccc2c1NC(=O)CN1C(=O)c2ccccc2C1=O

compound no.	85	86	87	88	89	90
PV pol inh	103	103	101	101	99	101
PV pol inh intensity	99	99	96	94	98	101
Mtb MbtI inh	-3	-2	38	-17	3	-7
Mtb MenB inh	-3	-16	8	-27	8	-18

91: CN(Cc1c(F)cccc1Cl)c1ncnc2ccccc12
92: CCCCN(C)C(=O)c1ccc2c(c1)N(Cc1ccccc1F)C(=O)c1ccccc1S2=O (configuration not stated)
93: COc1ccccc1/C=C/C1N=C(N)Nc2nc3ccccc3n21 (configuration not stated)
94: Cc1[nH]nc2oc(=O)c(CC(=O)O)c(C)c12
95: COc1ccc(-c2nnc(SCc3ccc(C#N)cc3)n2C(C)C)cc1
96: O=C(NCc1ccccc1)C1CC1

compound no.	91	92	93	94	95	96
PV pol inh	101	100	102	103	106	110
PV pol inh intensity	107	102	106	104	106	109
Mtb MbtI inh	-7	-1	54	88	6	.
Mtb MenB inh	-2	0	4	-252	-3	-8

97: OC(Cc1ccccc1)(Cc1ccccc1)C1CN2CCC1CC2 (configuration not stated)
98: CC(C)C(=O)NCCN1C(=O)S/C(=C\c2cccs2)C1=O
99: CC1Cc2nc(SCC(=O)NCc3ccco3)n(Cc3ccccc3)c(=O)c2S1 (configuration not stated)
100: CCN(CC)S(=O)(=O)c1ccc(C(=O)NNc2nc3c(OC)ccc(OC)c3s2)cc1

compound no.	97	98	99	100
PV pol inh	103	96	101	98
PV pol inh intensity	103	98	96	102
Mtb MbtI inh	-5	14	3	12
Mtb MenB inh	-14	-24	-14	-89

No enrichment for hits. Share with any hit: about 1.7%.
